Source: PubChem BioAssay (ICCB-Longwood Screening Facility, Harvard Medical School)
GIV-Gai inh – GIV-Galpha-i interaction inhibition | percent of control (FP), % (concentration not given with the values) | actives 0.42% (n = 210,000) | AID 1224905 | Galpha-i3/FITC-GIV peptide fluorescence polarization, 90 min; stronger effect = lower value; scaled: aluminum fluoride 0%, vehicle 100% | P08753;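 active = replicate mean at 85% of control or lower, very high polarization wells dropped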;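 also: wells of about 15 µL received 100 nL stock; the first replicate is given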
Target sequence (P08753 whole entry, looked up): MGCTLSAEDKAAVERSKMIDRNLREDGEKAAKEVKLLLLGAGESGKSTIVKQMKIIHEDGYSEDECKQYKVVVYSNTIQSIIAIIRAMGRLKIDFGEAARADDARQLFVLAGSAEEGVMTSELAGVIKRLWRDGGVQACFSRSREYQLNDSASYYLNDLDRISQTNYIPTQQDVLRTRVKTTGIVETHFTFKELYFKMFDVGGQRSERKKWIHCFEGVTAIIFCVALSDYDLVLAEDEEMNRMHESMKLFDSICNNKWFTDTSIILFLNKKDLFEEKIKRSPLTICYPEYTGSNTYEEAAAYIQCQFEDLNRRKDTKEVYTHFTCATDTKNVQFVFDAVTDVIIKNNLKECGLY
Sa growth 42C – S. aureus growth inhibition | AID 720641 | actives 0.53% (n = 170,000) | relative growth, % (test concentration not listed) | S. aureus RN4220 growth, OD600, 20 h, 42 °C; stronger effect = lower value;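 active = growth at 42 °C up to 50% and 20 or more points under that at 30 °C, or under 10% at both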;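 also: 300 nL library stock went into each well; scaled to the means of positive and negative controls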
HCMV NEC inh – disrupts HCMV UL50-UL53 complex binding; HTRF UL50-UL53 interaction, normalized percent inhibition; actives 0.15% (n = 190,000); AID 1918969; inhibition, % (no concentration beside the values);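 active = both replicates at 50% or more, plus weaker picks with an unusually low signal ratio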;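 also: stock transfer was 100 nL into about 20 µL; 0% = negative control wells and 100% = wells with untagged competitor protein; inactives centre near -12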
Sa growth 42C second temp – second read-out of Sa growth 42C, no call of its own (marks repeat the call); relative growth, %; measured here: growth at 30 °C;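 optical density after 20 h as mean of two plates; 100% = untreated growth and lower means inhibition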
Active calls of the source: *; x = no result given; & = joins results of further samples. Outcome played no part in choosing rows; about 0.79% have a hit in one of these screens.

compound,GIV-Gai inh,Sa growth 42C,Sa growth 42C second temp,HCMV NEC inh
CCNC(=O)/C(=N\O)c1ccccc1,104,111,99,x
O=C(Cn1c(=O)nc(-c2ccccc2)c2cc(Cl)ccc21)Nc1ccc(F)c(Cl)c1,99,108,88,-40
CCc1ccc(NC(=O)CCS(=O)(=O)c2ccc(Br)cc2)cc1,106,108,91,x
COc1ccccc1Nc1ncc2c(n1)CCN(CC(C)C)C2,104,82,88,x
NS(=O)(=O)c1ccc(CCNC(=O)CCn2c(=O)c3cccn3c3cccnc32)cc1,100,109,99,x
O=C(Nc1nc2cc(NC(=O)c3[nH]nc4c3COc3ccccc3-4)ccc2s1)c1ccccc1,103,x,x,-10
CCCCN1C(=O)C(NC(=O)c2ccc(C(C)(C)C)cc2)(C(F)(F)F)C(C(=O)OC)=C1C (stereo unspecified),102,68,87,-27
CCc1ccc(/C=C2\C(=O)N(Cc3ccco3)C(C)=C2C(=O)OC)cc1,103,110,99,-18
CCOC(=O)c1sc(NC(=O)Cc2n[nH]c(=O)c3ccccc23)cc1C,x,83,88,-21
CCCCC(=O)Nc1ccccc1CC,110,101,98,5
Cc1ccc2cc(CCNS(C)(=O)=O)c(=O)[nH]c2c1,107,98,85,-2
NC(=O)/C=C\c1cn(-c2ccccc2)nc1-c1ccc2c(c1)OCCO2,x,111,85,-37

(list continues)
compound,GIV-Gai inh,Sa growth 42C,Sa growth 42C second temp,HCMV NEC inh
CCCCCNc1nc(C)c(C(=O)OCC)s1,x,87,84,5
O=C(COc1ccccc1)N(Cc1ccccc1)c1ccccn1,x,100,99,-2
CC(C)[C@H](NC(=O)c1cccc(S(=O)(=O)N2CCCC2)c1)c1nc2ccccc2[nH]1,x,108,91,-35
CCOC(=O)N1CCN(c2nc(C)c3c(n2)CC(c2ccco2)CC3=O)CC1 (stereo unspecified),106,90,99,1
Cc1cc(NC(=O)c2cccc(S(=O)(=O)N(C)C)c2)n(-c2ccccn2)n1,x,89,78,-12
CCCn1c(SCn2nnc3ccccc3c2=O)n[nH]c1=O,x,103,100,-34
CN(Cc1ccccc1Cl)C(=O)C1CC(=O)N(c2ccc3c(c2)OCCO3)C1 (stereo unspecified),x,98,88,-11
COc1cc2c(cc1OC)C(Nc1nc(-c3ccccc3)cs1)=NC(C)(C)C2,95&94,82,88,-5
CC[n+]1ccc(C)c2ccccc21,99,99,102,x
CCCCn1c(N)c(N(C)C(=O)CSc2nnc(-c3ccco3)n2CC)c(=O)[nH]c1=O,x,127,98,3
COC(=O)c1ccc(NC(=O)c2ccc(Cl)cc2)s1,x,86,90,-30
C/[N+]([O-])=C\c1ccc(C#N)cc1,x,98&93,84&89,-61&-114

Later entries.
compound,GIV-Gai inh,Sa growth 42C,Sa growth 42C second temp,HCMV NEC inh
O=C(C1CCCN(S(=O)(=O)c2ccccc2)C1)N1CCN(c2ccc(F)cc2)CC1 (stereo unspecified),106,90,91,9
CN(C)C(=O)CSc1nc2ccc(Cl)cc2o1,103,x,x,12
N#Cc1ccc(CN2C(=O)CC3(CCCC3)C2=O)cc1,x,76,99,-26
OC1(C(F)(F)F)CC(c2nccs2)=NN1 (stereo unspecified),103,100,86,-14
CCOC(=O)Cn1cnc2sc3c(c2c1=O)CCCC3,97,x,x,-12
N#Cc1c(NC(=O)C#Cc2ccccc2)sc2c1CCC2,108,108,98,12
COc1ccc(C2=NN(C(=O)c3cccs3)C(c3ccccc3Cl)C2)cc1 (stereo unspecified),106,x,x,-16
CCN(CC)C(=O)c1ccc2c(c1)N(CC(=O)NCC1CCCO1)C(=O)CO2 (stereo unspecified),100,x,x,-10
COc1ccc(CN(C)C(=O)COc2ccc(-c3nnco3)cc2)c(OC)c1OC,x,95,99,-8
CN(C(=O)Cn1ncc2c([nH]c3ccccc32)c1=O)c1ccccc1,104,88,88,-28
COc1cc(Cl)c(NC(=O)CC(C)n2nc(C)cc2C)c(OC)c1 (stereo unspecified),98,107,82,-28
COc1ccc(Br)cc1CNC(=O)c1ccc2c(c1)nc1n2CCC(C)C1 (stereo unspecified),100,92,88,x

(cont.)
compound,GIV-Gai inh,Sa growth 42C,Sa growth 42C second temp,HCMV NEC inh
COc1ccccc1NCC(=O)NN,x,99,92,-3
CCCn1c(-c2ccccc2)nc2ccccc21,x,83,89,-16
CSc1nnc(Cc2ccccc2)c(=O)[nH]1,95,105,91,x
CSC(=CC(=O)c1cccs1)SC,99,70,66,-81
COc1cccc(Cn2c(C)c(C3CCN(S(=O)(=O)c4c(C)noc4C)CC3)c3ccccc32)c1,110,x,x,6
CC(CNC(=O)C1CCN(Cc2cc3ccccc3n2Cc2ccccc2)CC1)c1ccccc1 (stereo unspecified),98,119,88,x
CCOC(=O)c1ccc(OCC(=O)OC)cc1,106,98,102,-15
COc1ccc(-c2oc3ncn4nc(-c5ccc(Cl)cc5)nc4c3c2-c2ccc(OC)cc2)cc1,99,111,86,-17
Cc1cccc(-c2noc(-c3cc(C)[nH]n3)n2)c1,105,x,x,-25
COc1ccc(/C(C#N)=C/c2cccc(O)c2)cc1OC,103,54,34,-54
COCCNC(=O)c1c(NC(=O)c2csnn2)sc2c1CCCC2,104,x,x,-22
COc1ccc(CN(C)C(=O)COc2ncnc3ccccc23)c(OC)c1OC,x,124,110,19

Next part:
compound,GIV-Gai inh,Sa growth 42C,Sa growth 42C second temp,HCMV NEC inh
CN(C)CCNC(=O)c1cc(=O)nc2sc(N3CCCCC3)nn12,100,x,x,-13
CCN(CC)Cc1c(O)ccc2cc(-c3nc4ccccc4[nH]3)c(=O)oc12,x,92,87,-66
CC12CCC(=O)C=C1CCC1(C)C2(C)CCC2(C)C(C(=O)CO)CCC21C (stereo unspecified),x,66,43,22
Cc1cccc(CSc2nc(=O)n(Cc3ccccc3)c3c2CCC3)c1,102,x,x,-14
CCN(CC)c1nc2c(-c3cccc(Br)c3)nnn2c2ccccc12,101,108,85,-34
COc1ccccc1CNC(=O)c1ccc2c(c1)nc(C)n2-c1ccccc1OC,108,91,88,x
COc1ccc2nc(-c3ccccc3)cc(C(=O)O)c2c1,x,116,92,-52
c1ccc(-c2cn3ncsc3n2)cc1,100,95,75,-16
COCCn1c(C2CC(=O)N(CC(C)C)C2)nc2ccccc21 (stereo unspecified),100,102,88,-11
Cc1ccc(S(=O)(=O)n2cc3c(=O)n(C(C)C)c(=O)n(C(C)C)c3n2)cc1Cl,100,x,x,-20
CCC(C)OC(=O)COc1ccc2c(=O)c(Oc3ccccc3Cl)coc2c1 (stereo unspecified),100,113,84,x
COc1ccccc1OCC#CCNCC1CCCO1 (stereo unspecified),107,107,95,-9

Continuation:
Order of results: GIV-Gai inh | Sa growth 42C | Sa growth 42C second temp | HCMV NEC inh
COc1cc(NC(=O)c2cc3ccc4cccnc4c3[nH]2)cc(OC)c1OC
 : 98 | 90 | 90 | x
Fc1ccc(-c2cc3c(N4CCN(c5ccc(F)cc5)CC4)nccn3n2)cc1
 : 105 | x | x | -8
CCOc1cccc(C(=O)Nc2cccc(-c3nc4ccccc4[nH]3)c2C)c1
 : 100 | 98 | 88 | -9
O=C(NCCC1=CCCCC1)C(=O)NCc1n[nH]c(=O)c2ccccc12
 : 105 | x | x | -14
NCCCOC1CCCCC1
 : x | 103 | 89 | 0
Cc1noc2ncnc(N3CCC(C(=O)NCCN(C)C)CC3)c12
 : 108 | x | x | 5
Cc1cc(C)c(NC(=O)C(=O)NCC(c2cccnc2)N2CCN(c3ccccc3F)CC2)c(C)c1 (stereo unspecified)
 : 108 | 90 | 105 | 8
Cc1cccc(-n2cnc3sc4c(c3c2=O)CCCC4)c1
 : x | 103 | 92 | -25
CCC(C)Nc1cc(C)nc2c(C)c(-c3ccc(Cl)cc3)nn12 (stereo unspecified)
 : 111 | x | x | -16
CN1C(=O)NC(c2cccnc2)C(C(=O)c2cccs2)C1(O)C(F)(F)F (stereo unspecified)
 : 94 | 79 | 77 | x

Other compounds
Order of results: GIV-Gai inh | Sa growth 42C | Sa growth 42C second temp | HCMV NEC inh
COC(=O)c1cc(-c2cccs2)nc2c1c(C)nn2-c1ccccc1
 : x | 101 | 100 | 2
O=C(Nc1cccc(-c2noc(C3CCC3)n2)c1)Nc1ccc2c(c1)OCCO2
 : 109 | x | x | -31
CCOC(=O)N1CCN(S(=O)(=O)c2ccc(C(=O)Nc3ccc4nc(SC)sc4c3)cc2)CC1
 : 110 | 83 | 85 | -8
COc1ccccc1-c1nc(SCc2cc(=O)n3oc(C)cc3n2)n[nH]1
 : 97 | x | x | -18
CCN1CCCC1CNC(=O)NC1CC(=O)N(c2ccc(C)cc2)C1 (stereo unspecified)
 : 96 | 96 | 87 | -33
COc1ccc(OC)c(CNC(=O)c2ccc3nc(C(C)C)oc3c2)c1
 : 102 | 99 | 86 | x
O=C(O)C1CCN(C(=O)c2cccs2)CC1
 : 99 | 100 | 89 | -34
CC/C(=N\O)c1ccc(CCCCCC(=O)O)s1
 : 96 | 107 | 69 | -31
Cc1cc(OC(=O)C2COc3ccccc3O2)cc(C)c1Cl (stereo unspecified)
 : 101 | 108 | 95 | x
O=C(CSc1nnc(-c2cnccn2)s1)Nc1ccccc1
 : 100 | 105 | 103 | 1

The listing continues.
Order of results: GIV-Gai inh | Sa growth 42C | Sa growth 42C second temp | HCMV NEC inh
O=C(CCS(=O)(=O)c1nc(-c2cccs2)cc(C(F)(F)F)n1)Nc1ccc(F)c(Cl)c1
 : 110 | 78 | 82 | -8
CCN1C(=O)c2c(C(=O)NC3CC3)ncn2CC1(C)C(=O)NC1CCCC1 (stereo unspecified)
 : 108 | x | x | 0
COc1ccc(OC)c(C2C3=C(CCCC3=O)Nc3onc(C)c32)c1 (stereo unspecified)
 : 107 | x | x | -31
COc1ccc(C(=O)N(CC#N)CC#N)cc1
 : x | 112 | 85 | 0
O=c1ccnc(NCCc2ccccc2)[nH]1
 : 99 | 97 | 80 | 5
CCc1ccc(NC(=O)c2cc3nc(-c4ccc(C)cc4)cc(C(F)(F)F)n3n2)cc1
 : 106 | 98 | 89 | -19
CC(C)(C)c1ccc(/C=C2/NC(=O)N(Cc3ccc(Br)cc3)C2=O)cc1
 : 96 | 106 | 82 | x
CCN(CC)CCSc1ccc(-c2ccccn2)nn1
 : 103 | 91 | 87 | -60
O=C(c1cc2c(Cl)nc3ccccc3c2s1)N1CCCCC1
 : 105 | 108 | 96 | -38
O=C(c1ccco1)N1CCN(C(c2ccccc2)c2nnnn2Cc2ccccc2)CC1 (stereo unspecified)
 : 102 | 107 | 74 | -11

Next section; the last two above are carried over.
Order of results: GIV-Gai inh | Sa growth 42C | Sa growth 42C second temp | HCMV NEC inh
O=C(c1cc2c(Cl)nc3ccccc3c2s1)N1CCCCC1
 : 105 | 108 | 96 | -38
O=C(c1ccco1)N1CCN(C(c2ccccc2)c2nnnn2Cc2ccccc2)CC1 (stereo unspecified)
 : 102 | 107 | 74 | -11
COc1ccc(N2CCN(C(=O)c3noc4c3CCCCC4)CC2)cc1
 : 97 | 81 | 93 | x
CCCN1CCC(N2CCC(C(=O)OCC)CC2)CC1
 : 99 | 98 | 80 | -13
CCCOc1ccc(C2CC(=O)Nc3c2c(C)nn3-c2ccc3nncn3n2)cc1 (stereo unspecified)
 : 99 | x | x | -31
O=C(c1cnc2nc3ccccc3n2c1)c1cc(F)ccc1O
 : x | 85 | 95 | 4

In the list so far, ten have fluorine:
Order of results: GIV-Gai inh | Sa growth 42C | Sa growth 42C second temp | HCMV NEC inh
O=C(Cn1c(=O)nc(-c2ccccc2)c2cc(Cl)ccc21)Nc1ccc(F)c(Cl)c1
 : 99 | 108 | 88 | -40
CCCCN1C(=O)C(NC(=O)c2ccc(C(C)(C)C)cc2)(C(F)(F)F)C(C(=O)OC)=C1C (stereo unspecified)
 : 102 | 68 | 87 | -27
O=C(C1CCCN(S(=O)(=O)c2ccccc2)C1)N1CCN(c2ccc(F)cc2)CC1 (stereo unspecified)
 : 106 | 90 | 91 | 9
OC1(C(F)(F)F)CC(c2nccs2)=NN1 (stereo unspecified)
 : 103 | 100 | 86 | -14
Fc1ccc(-c2cc3c(N4CCN(c5ccc(F)cc5)CC4)nccn3n2)cc1
 : 105 | x | x | -8
Cc1cc(C)c(NC(=O)C(=O)NCC(c2cccnc2)N2CCN(c3ccccc3F)CC2)c(C)c1 (stereo unspecified)
 : 108 | 90 | 105 | 8
CN1C(=O)NC(c2cccnc2)C(C(=O)c2cccs2)C1(O)C(F)(F)F (stereo unspecified)
 : 94 | 79 | 77 | x
O=C(CCS(=O)(=O)c1nc(-c2cccs2)cc(C(F)(F)F)n1)Nc1ccc(F)c(Cl)c1
 : 110 | 78 | 82 | -8
CCc1ccc(NC(=O)c2cc3nc(-c4ccc(C)cc4)cc(C(F)(F)F)n3n2)cc1
 : 106 | 98 | 89 | -19
O=C(c1cnc2nc3ccccc3n2c1)c1cc(F)ccc1O
 : x | 85 | 95 | 4
